Bioassay records as filed in PubChem.
VACV E9 pol inh = vaccinia E9 polymerase processive synthesis inhibitors, primary screen, biochemical, absorbance; in vitro processive DNA synthesis, absorbance read-out; hits give low values; some inactives read as strong as hits; normalized absorbance, % (no concentration beside the values); actives 0.94% (n = 46,000); AID 493162, 2011;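 active = replicate mean up to 90% and picked by the depositor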;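 note: 100% = median of the test wells of a plate; 100 nL library stock went into each well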
The depositor's hits bear a star. A portion of the library, so the mix of outcomes need not match the whole.

SMILES | VACV E9 pol inh
COC(=O)c1[nH]c2c(c1C)C(=O)CC(c1ccccc1)C2 (stereo unspecified) | 103
CC1CCCC(NC(=O)CSCc2cnn(-c3ccccc3)c2-n2cccc2)C1C (stereo unspecified) | 103
CC(C)c1ccc2nc(Nc3nc4ccc(S(C)(=O)=O)cc4s3)sc2c1 | 102
COc1ccc(/C=C/C(=O)Nc2ccncc2)cc1OC | 103
O=C(c1cccs1)N1c2ccccc2C=Cc2ccccc21 | 102
CCOC(=O)c1nnn2c1nc(N1CCN(c3ccccc3)CC1)c1ccccc12 | 111
COc1ccc(C2=NC(=O)/C(=C\c3cc(OC)c(OC)c(OC)c3)O2)cc1 | 100
Nc1nc(=S)c2[nH]cnc2[nH]1 | 100
CC(C)Cc1ccc(C(C)C(=O)N2CCN(c3ccc(C(F)(F)F)cn3)CC2)cc1 (stereo unspecified) | 102
CCOC(=O)c1sc(NC(=O)c2ccc(F)cc2)nc1-c1ccccc1 | 96
COc1cc(S(=O)(=O)N(C)C2CCCCC2)c(OC)cc1Cl | 93
COc1cc(CNc2ccc3[nH]c(=O)[nH]c3c2)cc(Br)c1OCC(=O)NC(C)(C)C | 100
CCOC(=O)N1CCN(S(=O)(=O)/C=C/c2ccccc2)CC1 | 100
CCOC(=O)CN1CCN(C=O)CC1 | 101
Cc1ccc(CSc2nc3ccc(C(=O)NCCN4CCCC4)cc3n2C)cc1 | 77
CNC(=O)CSc1ccc(Cl)cc1 | 98
NS(=O)(=O)c1ccc(CCNc2nc3c(-c4ccc(Cl)cc4)nnn3c3ccccc23)cc1 | 99
O=C(NC(O)C(=O)c1ccccc1)c1ccccn1 (stereo unspecified) | 105
O=C(CN1C(=O)CCC1=O)Nc1nc(-c2ccccc2)cs1 | 102
Cc1nnc2c3c(-c4ccccc4)csc3ncn12 | 101
CC(=O)Nc1nc(C)c(Cc2ccccc2)c(=O)[nH]1 | 98
O=C1CC(C(=O)Nc2ccc(C(=O)O)cc2)C(c2ccccc2)O1 (stereo unspecified) | 93
CCNc1nc2nonc2nc1NCC | 106
CCOc1ccc(NC(=O)c2cc(Cl)nc3ccccc23)cc1 | 98
O=S1(=O)CCN(C2CCN(Cc3ccccc3)CC2)CC1 | 104
O=C(c1ccc2c(=O)n3c(nc2c1)CCCCC3)N1CCCC1 | 94
COc1cccc(OCC(=O)N(C)C2CCS(=O)(=O)C2)c1 (stereo unspecified) | 92
COc1ccccc1NC(=O)c1oc2ccccc2c1NC(=O)CSCc1ccccc1 | 102
COc1cc2ccccc2cc1C(=O)OCC(=O)Nc1ccccc1Cl | 100
Oc1ccc(C(=S)N2CCCCC2)cc1 | 100
O=C(Oc1ccccc1N1CCOCC1)c1ccco1 | 93
CCOC(=O)CNc1ccccc1C#N | 113
Cc1cc(Oc2ccccc2)nc(SCc2ccccc2)n1 | 101
CCc1cc2c(=O)c(Oc3ccc(F)cc3)c(C)oc2cc1O | 98
Nc1ccc(C(F)(F)F)c(C(F)(F)F)c1 | 104
COc1cc(Cl)c(S(=O)(=O)NCc2ccccn2)cc1Cl | 99
COc1ccc(N2CCN(C(=S)Nc3ccccc3)CC2)cc1 | 100
Cn1cccc1Cc1nnc(SCC(=O)Nc2ccccc2C(F)(F)F)n1CCc1ccccc1 | 98
Nc1ccc(NC(=O)CCN2CCOCC2)cc1 | 98
CCOC(=O)N1CCC(NC(=O)c2cc3cc4cc(OC)ccc4nc3o2)CC1 | 97
c1ccc(-c2cc3ccccc3[nH]2)cc1 | 101
c1ccc(Cn2c3c(c4ccccc42)CCOc2ccccc2-3)cc1 | 100
Cc1cccc(C(=O)NC(C)(C)CC(C)(C)C)c1 | 102
CC(C)Cc1cc(-c2cccc(Br)c2)c(C#N)c(N)n1 | 100
COc1cc(/C=C(\C#N)c2ccc(C)cc2)cc(OC)c1OC | 92
N#C/C(=C\c1ccc(Cl)cc1)c1ccccc1 | 100
COc1ccc2ccccc2c1S(N)=O (stereo unspecified) | 117
CCOC(=O)c1nn(-c2cccc(Cl)c2)cc(Sc2ccc(Cl)cc2)c1=O | 102
O=C(O)CCCc1nnc2n3nc(-c4ccccc4)nc3c3ccccc3n12 | 102
COc1ccc(CC(=O)NC(c2ccccc2)c2ccccc2)cc1 | 103
COc1ccccc1C(=O)c1nc2ccccc2n1C | 100
c1ccc(CSc2nnc(-c3c[nH]c4ccccc34)o2)cc1 | 89
Nc1ccc(SC(F)(F)F)cc1 | 101
COC(=O)c1ccc(NC(=S)N2CCOCC2)cc1 | 100
CCOC(=O)c1c(C)oc2c1c(C=NC1CCCC1)c(O)c1ccccc12 | 98
CN(CC(=O)NC1CCCCC1)S(=O)(=O)c1ccccc1 | 108
CN(C)/C=N/c1nnc(Sc2ccnc3cc(Cl)ccc23)s1 | 87
COc1cc2c(C(=O)Nc3ccc(F)cc3)cn(CC(C)C)c(=O)c2cc1OC | 103
CCC(C)NC(=O)Cn1c(=O)n(Cc2ccccc2Cl)c(=O)c2cc(OC)c(OC)cc21 (stereo unspecified) | 105
COc1ccc(S(=O)(=O)NCc2cn3ccccc3n2)cc1F | 100
Following part.
SMILES | VACV E9 pol inh
CCS(=O)(=O)NCCc1csc(-c2ccccc2)n1 | 101
CC(C)C(=O)N=C1c2ccccc2CN1c1ccc(C#N)cc1 | 92
O=C1C=C(C(F)(F)F)c2ccc(NC3CCCCC3)c3cccc1c23 | 90
O=C(COc1ncnc2ccccc12)NCCc1ccccc1 | 96
O=C(NCCC1=CCCCC1)c1cc(Sc2ccc(F)cc2)nc2ccccc12 | 100
CC1Cc2ccc(F)cc2CN1C(=O)c1ccc(COc2ccccc2Br)o1 (stereo unspecified) | 100
O=C(Cn1c(=O)c2cccn2c2cccnc21)N1CCCC1 | 97
CCOC(=O)/N=C(/c1ccc(Cl)cc1)c1cc2ccccc2cn1 | 104
N#CCCn1cc(/C=N/O)c(-c2ccccc2)n1 | 91
CCCCN1C(=O)CCC(C(=O)O)C1c1cccs1 (stereo unspecified) | 131
O=C(CN1C(=O)CC(c2ccccc2)Sc2ccccc21)NCC1CCCO1 (stereo unspecified) | 92
CC1Sc2cc(S(=O)(=O)N3CCC(Cc4ccccc4)CC3)ccc2NC1=O (stereo unspecified) | 101
COC(=O)c1ccccc1NC(=O)c1ccc(Cn2cc(Cl)cn2)cc1 | 100
O=S(=O)(Cc1ccccc1)NC1CCCCC1 | 101
O=C(/C=C/N1C(=O)c2ccccc2C1=O)c1ccccc1 | 100
COc1ccc(-n2cnc3cc(NC(=O)c4cccs4)ccc32)cc1 | 98
Brc1ccc(-c2cc3n(c2)CCc2ccccc2-3)cc1 | 100
C=CCn1c(CCNC(=O)c2ccc(OC)c(OC)c2)nc2ccccc21 | 99
Cc1cc2cc(CNC(=O)c3ccc(S(=O)(=O)N4CCCC4)cc3)ccc2[nH]1 | 101
O=c1c(C=NCCN2CCOCC2)c(C(F)(F)F)[nH]n1-c1nc2ccccc2s1 | 101
CCN1CCN(c2ncc3c(n2)CC(c2cc(OC)c(OC)c(OC)c2)CC3=O)CC1 (stereo unspecified) | 98
Cc1nc2ccc(Br)cc2c(=O)n1-c1cc(C(F)(F)F)ccc1N1CCOCC1 | 98
COc1ccccc1-n1c(=O)c2c3c(sc2n2c(=S)[nH]nc12)CCC3 | 100
O=C(NCCSc1c[nH]c2ccccc12)c1ccc(S(=O)(=O)N2CCCC2)cc1 | 96
CC1Cc2cc(C3(O)C(=O)c4ccccc4C3=O)ccc2N1 (stereo unspecified) | 107
CCOc1ccccc1NC(=O)c1ccco1 | 101
COc1ccc(C(=O)Cc2ccc3c(c2)OCCO3)c(O)c1 | 102
CC(C)N=Cc1c(O)[nH]c2ccccc12 | 100
CC1CCCCC1NC(=O)c1cccc(NS(=O)(=O)c2ccc(Br)cc2)c1 (stereo unspecified) | 110
O=C(CCSc1nnc2scc(-c3ccc(Cl)cc3)n12)NCCc1ccccc1 | 101
CC(=O)Nc1cc(C)c2c(=O)oc3ccccc3c2n1 | 99
O=C(NCCCN1CCOCC1)c1cc2ccccc2o1 | 105
Cc1csc(Nc2ccccc2)[n+]1CCO | 110
COc1cccc(Nc2nnc(Cc3cccnc3)c3ccccc23)c1 | 108
O=c1cc[nH]c2cc(N3CCOCC3)c(F)cc12 | 101
N#CCC(=O)NC(=O)Nc1ccc(F)cc1F | 99
FC(F)(F)c1ccnc(SCn2c(=S)sc3ccccc32)n1 | 106
COc1ccc(Nc2cc(C)c3cc(NC(=O)c4ccc(OC)cc4)ccc3n2)cc1 | 99
Cn1nccc1NC(=O)c1ccccc1 | 101
CCCc1cc(=O)[nH]c(SC)n1 | 100
CC(C)(C)C(=O)CSC1=NCCS1 | 95
CCOC(=O)c1c(CSc2ccccc2)oc2ccc(O)c(CN(C)C)c12 | 100
O=C(NCC12CC3CC(CC(C3)C1)C2)C1CCCCC1C(=O)OCC(F)(F)F (stereo unspecified) | 100
Cc1ccccc1Nc1sc(C(=O)c2ccccc2)c(N)c1C(N)=O | 100
CSc1nc2ccc(S(=O)(=O)N3CCc4ccccc43)cc2s1 | 100
CCN1C(=O)S/C(=C\c2ccc3c(c2)OCO3)C1=O | 100
CN(C)c1nn(C(=O)NC(C)(C)C)cc1-c1ccccc1 | 103
CC(C(N)=O)n1cncn1 (stereo unspecified) | 88
O=C(O)c1ccc(N2Cc3ccc(Br)cc3C2)cc1 | 96
O=C(NCCc1cn2ccccc2n1)c1cccc(C(F)(F)F)c1 | 96
CC1CN/C(=C/C(=O)/C=C/c2ccccc2)C(=O)N1 (stereo unspecified) | 100
Cc1cc(C)c(C(N)=O)c(SCC(=O)Nc2nccs2)n1 | 100
Cc1ccc(C2C3=C(CC(C)(C)CC3=O)Nc3n[nH]c(C)c32)cc1 (stereo unspecified) | 107
Cc1ccc(-c2nn(-c3cccc(F)c3)c3c2cnc2cc(F)c(F)cc23)cc1 | 97
O=C(NC1=NCCS1)c1cc2ccccc2o1 | 100
Cc1cc(Nc2cccc(C(F)(F)F)c2)nc2ccc(NC(=O)c3ccccn3)cc12 | 93
COc1ccc(C2CC(=O)N3CN(CCC(C)C)CSC3=C2C#N)cc1OC (stereo unspecified) | 95
COc1ccc(-c2ccc(S(=O)(=O)N3CCCCCC3)cc2)cc1 | 104
CCCc1c(Cc2c(F)cccc2Cl)c(=O)oc2cc(O)ccc12 | 89
O=C1c2ccccc2C2=Nc3ccccc3SC(c3ccc(F)cc3)C12 (stereo unspecified) | 100

Part of the list above in order of heavy-atom count, falling.
SMILES | VACV E9 pol inh
Cc1cc(Nc2cccc(C(F)(F)F)c2)nc2ccc(NC(=O)c3ccccn3)cc12 | 93
Cc1ccc(-c2nn(-c3cccc(F)c3)c3c2cnc2cc(F)c(F)cc23)cc1 | 97
COc1ccc(C2CC(=O)N3CN(CCC(C)C)CSC3=C2C#N)cc1OC (stereo unspecified) | 95
CCOC(=O)c1c(CSc2ccccc2)oc2ccc(O)c(CN(C)C)c12 | 100
O=C1c2ccccc2C2=Nc3ccccc3SC(c3ccc(F)cc3)C12 (stereo unspecified) | 100
Cc1ccccc1Nc1sc(C(=O)c2ccccc2)c(N)c1C(N)=O | 100
CCCc1c(Cc2c(F)cccc2Cl)c(=O)oc2cc(O)ccc12 | 89
CSc1nc2ccc(S(=O)(=O)N3CCc4ccccc43)cc2s1 | 100
CN(C)c1nn(C(=O)NC(C)(C)C)cc1-c1ccccc1 | 103
CCN1C(=O)S/C(=C\c2ccc3c(c2)OCO3)C1=O | 100
O=C(NC1=NCCS1)c1cc2ccccc2o1 | 100
Cn1nccc1NC(=O)c1ccccc1 | 101
CC(C)(C)C(=O)CSC1=NCCS1 | 95
CCCc1cc(=O)[nH]c(SC)n1 | 100
CC(C(N)=O)n1cncn1 (stereo unspecified) | 88

The listing continues:
SMILES | VACV E9 pol inh
CC(=NC1CC1)c1c(C)[nH]n(-c2nc3ccccc3s2)c1=O | 100
COc1cccc2c1oc(=O)c1c(NC(C)=O)nc(-c3cccs3)nc12 | 102
CCOC(=O)c1sc2nc(N)c(C#N)c(-c3ccc(Cl)cc3)c2c1N | 101
N#Cc1c(NC(=O)CCN2CCOCC2)sc2c1CCCCC2 | 101
CC1Cc2ccccc2N1C(=O)COc1c(F)c(F)c(F)c(F)c1F (stereo unspecified) | 101
CC(=O)N(C)S(=O)(=O)c1ccc(C)cc1 | 104
Cc1ccc(SCc2nccn2Cc2ccc(Cl)cc2)cc1 | 100
CC1=C(C)CS(=O)N(S(=O)(=O)c2ccccc2)C1 (stereo unspecified) | 104
O=C(O)CC1(CC2=NS(=O)(=O)c3ccccc3N2)CCCC1 | 102
CCCn1c(=O)c(C#N)nn(-c2ccc(OC)cc2)c1=O | 106
COc1ccc(C2C3CCc4ccccc4C3=NN2C(=O)c2cccs2)cc1 (stereo unspecified) | 89
Cn1c(CSCC(=O)Nc2ccccc2)nnc1SCc1ccc(Cl)cc1 | 108
NC(=O)Cn1c(=O)n(Cc2ccccc2)c(=O)c2cccnc21 | 73
COc1ccccc1OCC(=O)O | 98
COc1ccc(OC)c(/C=c2\sc3nnc(-c4ccccc4Cl)n3c2=O)c1 | 100
CS(=O)(=O)c1ccc2nc(NC(=O)C3CCCO3)sc2c1 (stereo unspecified) | 100
N#CC(C(=O)c1ccc(Cl)cc1Cl)c1nc2ccccc2[nH]1 (stereo unspecified) | 97
CSc1cccc(-n2nnc(C(N)=O)c2C)c1 | 107
O=C1N(c2ccccc2)C(c2ccccc2)C1(F)F (stereo unspecified) | 105
CC1CN(S(=O)(=O)c2ccc(F)c(F)c2)CC(C)O1 (stereo unspecified) | 100

Some of the entries so far, field by field:
CC1=C(C)CS(=O)N(S(=O)(=O)c2ccccc2)C1 (stereo unspecified)
  VACV E9 pol inh: 104

CC1Cc2ccccc2N1C(=O)COc1c(F)c(F)c(F)c(F)c1F (stereo unspecified)
  VACV E9 pol inh: 101

COc1ccccc1OCC(=O)O
  VACV E9 pol inh: 98

Cn1c(CSCC(=O)Nc2ccccc2)nnc1SCc1ccc(Cl)cc1
  VACV E9 pol inh: 108

Carrying on.
SMILES | VACV E9 pol inh
O=C1c2cccc3cccc(c23)N1CSc1nc2ccccc2s1 | 99
O=C(O)CCN1C(=O)SC(Nc2ccccc2)C1=O (stereo unspecified) | 99
Oc1ccc(C2N(c3ccccc3)CCN2c2ccccc2)cc1 | 96
COC(=O)c1cc(-c2ccccc2)nc2c1c(C)nn2-c1ccccc1 | 100
O=C(NCCCl)c1ccc2ccccc2n1 | 94
